MARV entry inh: inhibitors of Marburg virus binding or cell entry; Marburg virus pseudotyped entry inhibition, cell reporter; control for the full effect not named in the record; about a third of the inactives were read at about 46 µM; Potency, µM (titrated, usually from 37.8 µM), for inactives: at the top dose activity change, negative = inhibition, most hits filed as inhibitors; AID 540276; 300,000 compounds, 1.8% hits; active = well fitted inhibition curve with a large enough effect; inconclusive = small, poorly fitted or top-dose-only effect, or effect the other way; inactive = flat fitted curve, though single readings scatter; tested in HEK293 cells; about a fifth of its hits are not listed in these tables; further: on the % scale 0 is the no-effect control and ±100 the full control effect; luciferase read-out
StopGo reporter: lowers the luciferase signal of an FMDV 2A StopGo reporter; 410,000 compounds, 1.2% hits; human cells with a luciferase reporter of 2A StopGo recoding; control for the full effect not named in the record; Potency, µM (series often up to 57.9 µM), inactives show at the highest dose signal change, negative = less light; active = well fitted falling curve with a large enough effect; inconclusive = small, poorly fitted or top-dose-only effect; inactive = no such curve, though single readings can be large or run the other way; tested in HEK293T cells; further: on the % scale 0 is the no-effect control and ±100 the full control effect; nearly all actives have a fitted effect of over 45% in size; luciferase light after 4 h
SARS PLP yeast: blocks SARS-CoV papain-like protease in a yeast assay | S. cerevisiae expressing SARS-CoV PLpro, growth rescue; control for the full effect not named in the record | Potency, µM (doses to about 32.9 µM), for inactives: top-dose activity, positive = growth rescue | AID 485353 | 330,000 compounds, 0.19% hits; further: 0% is about no effect; nearly all actives have a fitted effect of over 55% in size; growth read by luminescence after 48 h
Cruzain noTriton: cruzain (T. cruzi) inhibition without detergent; P25779; purified cruzain, Z-FR-AMC fluorescence, no detergent; Potency, µM, without a hit: max response, negative = inhibition, usual class: inhibitors; 200,000 compounds, 2.3% hits; AID 1476; active means well fitted curve in the direction sought with a large enough effect; inconclusive means small, poorly fitted or top-dose-only effect, or another doubt; inactive means no such curve, though single readings can be large; an effect the other way counts as inactive or inconclusive;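 further: plate controls were enzyme without inhibitor for no effect and buffer without enzyme for full effect; nearly all actives have a fitted effect of over 40% in size; top concentration of the series not given in the record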
Target sequence (P25779 123-467 limits assumed): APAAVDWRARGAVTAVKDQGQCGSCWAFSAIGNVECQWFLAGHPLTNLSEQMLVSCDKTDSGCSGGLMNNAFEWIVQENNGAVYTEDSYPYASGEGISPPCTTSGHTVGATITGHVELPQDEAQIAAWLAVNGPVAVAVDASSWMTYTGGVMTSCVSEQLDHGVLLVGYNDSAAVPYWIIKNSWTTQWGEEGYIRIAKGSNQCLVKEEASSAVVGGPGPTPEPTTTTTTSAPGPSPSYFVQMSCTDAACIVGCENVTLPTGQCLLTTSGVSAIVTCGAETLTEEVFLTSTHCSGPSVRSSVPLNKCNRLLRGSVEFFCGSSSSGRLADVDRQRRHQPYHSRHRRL
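Purified cruzain at 1.5 nM, pre-incubated 15 min with compound at room temperature in 100 mM sodium acetate pH 5.5, 5 mM DTT, 0.00005% Triton X-100. Reaction started with 2 uM Z-FR-AMC; AMC fluorescence increase over 60 s gives rate.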
Cruzain inh Det: blocks cruzain activity in presence of Triton detergent; P25779; purified cruzain, Z-FR-AMC fluorescence, 0.01% Triton; Potency, µM, inactives show max response, negative = inhibition, actives largely listed as inhibitors; 200,000 compounds, 0.43% hits; AID 1478; active means well fitted curve in the direction sought with a large enough effect; inconclusive means small, poorly fitted or top-dose-only effect, or another doubt; inactive means no such curve, though single readings can be large; an effect the other way counts as inactive or inconclusive;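 further: plate controls were neutral wells for no effect and buffer without enzyme for full effect; nearly all actives have a fitted effect of over 40% in size; top concentration of the series not given in the record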
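In this qHTS format, compounds are incubated with 1.5 nM cruzain for 15 min at room temperature before 2 uM Z-FR-AMC is added. Release of AMC is followed at 360/450 nm, and progress is taken as the 60 s fluorescence difference.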
NS1 function inh: blocks influenza NS1 protein function. S. cerevisiae slowed by influenza A NS1, growth recovery by OD600. Potency, µM (series often up to 46.1 µM), inactives show at the top dose activity, positive = more growth. 270,000 compounds, 0.4% hits. AID 2326; further: actives are rising curves; nearly all actives have a fitted effect of over 50% in size
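Growth recovery, yeast-based: influenza A NS1 expressed in S. cerevisiae causes slow growth, and suppressors are detected by OD600. The parent strain without NS1 is used as positive control.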
Lassa entry inh: Lassa virus entry inhibition. Potency, µM (top dose mostly 37.9 µM), for the others: at the top dose activity change, negative = inhibition, actives largely listed as inhibitors. 300,000 compounds, 1.2% hits. Lassa virus pseudotype entry inhibition, cell reporter; control for the full effect not named in the record; active means well fitted inhibition curve with a large enough effect; inconclusive means small, poorly fitted or top-dose-only effect, or effect the other way; inactive means flat fitted curve, though single readings scatter; tested in HEK293 cells; further: on the % scale 0 is the no-effect control and ±100 the full control effect; nearly all actives have a fitted effect of over 50% in size; luciferase read-out
RE007 growth inh: less growth of the S. pombe RE007 Vpr strain; S. pombe RE007 Vpr strain, BacTiter-Glo ATP luminescence, 24 h; control for the full effect not named in the record; Potency, µM (doses to about 92.2 µM), inactives show top-dose activity change, negative = less growth; 360,000 compounds, 0.21% hits; AID 651644; active = well fitted falling curve with a large enough effect; inconclusive = small, poorly fitted or top-dose-only effect; inactive = no such curve, though single readings can be large or run the other way;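 further: on the % scale 0 is the no-effect control and ±100 the full control effect; nearly all actives have a fitted effect of over 50% in size; the assay follows cell death caused by Vpr and the record does not say whether a fall means rescue or toxicity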
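Fission yeast strain RE007, carrying one chromosomally integrated HIV-1 vpr copy, was seeded at OD 0.01 in PMG+AL medium with 23 nL pinned compound. After 24 h at 30 °C and 99% humidity, viability was read by BacTiter-Glo luminescence.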
* hit, by the source's call; ? = inconclusive; · = not tested or not shown; & = joins results of further samples; [ ] = another dose, or the depositor's remark. Unless noted, the call rests on the fitted dose curve; in most records, active means well fitted rising curve with a large enough effect; inconclusive means small, poorly fitted or top-dose-only effect; inactive means no such curve, though single readings can be large or run the other way. Potency means the concentration at half of the fitted maximal effect.

SMILES	MARV entry inh	StopGo reporter	SARS PLP yeast	Cruzain noTriton	Cruzain inh Det	NS1 function inh	Lassa entry inh	RE007 growth inh
C/C(=N/NC(=O)c1ccc(-c2ccccc2)cc1)c1cc(O)cc(O)c1	9.0%[46.1 µM]	-0.4%	-1.2%	·	·	24.1%	-28.5%[46.1 µM]	-26.3%
CCCC(=O)Nc1nnc(/C=C/c2ccccc2)s1	·	39.5%[activator]	-8.5%	·	·	-12.7%	·	1.3%
COc1ccc(OC)c(CCNC(=O)CS(=O)(=O)Cc2nc(-c3ccc(C)cc3)oc2C)c1	-9.2%&-9.2%	-25.5%	2.1%	?	-8.1%	?	3.2%	6.8%
O=C(Cn1cc(S(=O)(=O)c2ccccc2)c(=O)c2cc3c(cc21)OCO3)Nc1ccccc1	10.3%[46.1 µM]	3.2%	·	-5.4%	4.2%	·	-9.7%[46.1 µM]	·
COc1cc(OC)cc(-c2nc3nc(C)c(CCC(=O)Nc4ccc(F)cc4F)c(C)n3n2)c1	8.8%[46.1 µM]	6.9%	·	3.7%	1.3%	·	-22.1%[46.1 µM]	·
Cc1ccc(NCC(O)C(O)C(O)CO)c(N=Nc2ccccc2)c1C (centres undefined)	·	11.4%	-1.8%	·	·	-7.9%	·	-15.3%
C#CCOc1c(Br)cc(/C=C2/C(=O)ON=C2C)cc1OC	-0.7%[46.1 µM]	1.4%	0.7%	·	·	6.6%	16.7%[46.1 µM]	5.6%
O=C(NC1CC(=O)N(c2cccc(F)c2)C1)C1CCCCC1 (centres undefined)	·	3.0%	·	-10.4%	-2.0%	·	-10.3%[46.1 µM]	·
S=C(NCCc1ccccc1)Nc1ccccc1Cl	-3.4%	34.6%[activator]	19.1%	8.4%	-0.8%	-22.7%	-0.6%	-24.6%
O=C(Nc1ccccc1)N(C1=NCCC1)c1ccccc1	-16.9%	-17.1%	-1.0%	·	·	-5.0%	-14.9%	-7.4%
COc1nc(NS(=O)(=O)c2ccc(C)cc2)nc(C)c1Cl	-29.7%&-29.7%[46.1 µM]	78.5%[activator]	-6.2%	4.9%	1.6%	-11.8%[9.22 µM]	-6.6%	-1.1%
COc1ccc(C(CNC(=O)Cc2ccc(Cl)c(Cl)c2)N2CCCCC2)cc1 (centres undefined)	?	-17.0%	-2.8%	·	·	-7.1%	-12.4%	-22.9%
CCOC(=O)N1CCN(C(=O)c2ccccc2N(Cc2ccccc2)S(=O)(=O)c2ccccc2)CC1	?	22.7%	-4.4%	·	·	-6.7%	?	1.8%
CCN(NC(=O)C(O)(c1ccc(F)cc1)c1ccc(F)cc1)C(=O)c1ccccc1	-30.7%	-17.6%	5.0%	-8.3%	-3.4%	0.1%	10.7%	25.8%
Cc1cc(C)c(C#N)c(SCC(=O)Nc2ccccc2)n1	?	-16.0%	0.2%	·	·	-5.2%	8.4%[46.1 µM]	-15.9%
COC(=O)c1ccc(COc2ccc(-c3nnn(CC(N)=O)n3)cc2)cc1	-2.8%[46.1 µM]	23.1%	-0.7%	·	·	·	-16.4%[46.1 µM]	0.0%
COC(=O)c1cc(Br)c(=O)n(Cc2ccc3c(c2)OCO3)c1	3.5%	-28.0%	4.2%	2.0%	-3.8%	0.3%	-0.8%	-8.4%
O=C(NCCO)c1ccc(CSc2nc3ccccc3[nH]2)cc1	-8.3%	-4.4%	-29.3%	-11.6%	-0.8%	5.7%	?	2.2%
CCNC(=O)CC(=O)Nc1ccccc1C(=O)O	6.9%	4.2%	3.4%	12.5%	7.0%	-4.7%	-20.0%	2.4%
C(=C\c1ccccc1)/C=N/n1cnnc1	1.5%	5.9%	-5.4%	-2.3%	-1.9%	-4.2%	15.3%	2.4%
O=C(Cn1c(=O)n(-c2ccccc2)c(=O)c2ccc(C(=O)NCc3ccc4c(c3)OCO4)cc21)Nc1ccc(Br)cc1	4.5%[46.1 µM]	40.5%[activator]	·	-14.9%	-3.5%	·	2.4%[46.1 µM]	·
COc1ccc(Cl)cc1NC(=O)CSc1nnc(Cn2c(=O)sc3ccccc32)n1C	·	-20.7%	-1.9%	7.6%	-2.5%	-1.5%	·	-7.2%
COC(=O)c1ccc(N2CCN(S(=O)(=O)c3ccc(Br)cc3)CC2)c([N+](=O)[O-])c1	?	-11.3%	-9.5%	?	-0.6%	25.7%	-19.3%	18.5%
O=C(CN(C(=O)CCNC(=O)c1ccco1)c1ccccc1)NC1CCCC1	?	-16.1%	2.6%	-21.0%	-2.0%	-6.7%	-3.5%	-9.9%
Cc1ccc(CN2CCc3nc(Nc4ccc5c(c4)OCCO5)ncc3C2)cc1	·	-14.9%	·	-2.7%	-8.7%	·	-6.3%[46.1 µM]	·
O=C(CSc1ncn(-c2ccccc2)n1)Nc1nccs1	-12.0%	-16.4%	-2.5%	1.7%	3.3%	1.1%	0.3%	20.7%[3.69 µM]
COc1ccc(S(=O)(=O)NC(C)C(=O)NCC2CCCO2)cc1OC (centres undefined)	10.5%[46.1 µM]	-14.1%	-7.4%	·	·	23.1%	9.4%	94.5%
CCCCN(C(=O)c1ccc(C)c(S(=O)(=O)N2CCOCC2)c1)c1c(N)n(CC(C)C)c(=O)[nH]c1=O	29.4%	-23.2%	-3.5%	·	·	·	-3.4%	2.1%
CCN(CC)C(=O)CSc1nc2ccsc2c(=O)n1Cc1ccccc1Cl	·	-7.7%	·	7.5%	-2.7%	·	-0.8%[46.1 µM]	·
Cc1ccccc1OCC(=O)NN1C(=O)C2C3C=CC(O3)C2C1=O (centres undefined)	-5.0%[46.1 µM]	-12.4%	0.1%	·	·	2.9%	10.7%[46.1 µM]	-1.4%
Cn1nc(C(C)(C)C)cc1NC(=O)Nc1cc(Cl)cc(Cl)c1	?	-14.8%	-0.2%	·	·	-1.9%	?	2.0%
Cc1ccc(-c2nn(-c3ccccc3)cc2/C=N/O)cc1	?	-6.0%	-6.0%	·	·	-4.2%	14.9%[46.1 µM]	?
COc1cc(-n2c(=O)c3ccccc3n(Cc3cccnc3)c2=O)cc(OC)c1OC	20.4%	10.2%	·	·	·	5.2%	?	-1.3%
C=CCN(CC(=O)Nc1cccnc1)S(=O)(=O)c1ccc(Cl)cc1	?	-10.1%	-0.2%	·	·	·	?	2.7%
CCn1c(CC2C(=O)N(C)c3ccc(Br)cc32)nc2ccccc2c1=O (centres undefined)	19.5%[46.1 µM]	-14.6%	·	?	-2.0%	·	-16.6%[46.1 µM]	·
COc1cc(NC(=O)c2ccccc2)c(OC)cc1Cl	0.0%	0.0%	4.8%	11.5%	-3.5%	-12.9%	-0.3%	-25.7%
COCCNC(=O)CCCC(=O)NCCOC	?	-12.1%	14.5%	-8.8%	-2.1%	10.4%	-3.3%	9.3%
COc1ccc(/C=N/NC(=O)Cc2cc(OC)c(OC)cc2[N+](=O)[O-])cc1	-23.8%	-5.5%	13.2%	-7.0%	-11.2%	0.0%	7.3%	15.4%
CCN(CC)S(=O)(=O)c1ccc2oc(C(=O)NCc3ccccc3OC)c(C)c2c1	?	-26.7%	·	0.3%	-4.7%	·	?	·
COc1ccc(N(C)C(=O)c2cc3c(s2)-c2ccccc2OC3)c(OC)c1	·	-19.4%	?	·	·	-51.5%	·	-2.9%
COc1cc([N+](=O)[O-])cc(/C=N/NC(=O)Cn2cncn2)c1O	·	-13.4%	0.1%	·	·	0.4%	·	12.1%
Cc1ccc(-c2nc3ccccn3c2Nc2c(C)cccc2C)o1	-5.7%[46.1 µM]	-25.5%	·	0.5%	-16.3%	·	-18.7%[46.1 µM]	·
COC(=O)C1=C(C)N(C)C(=S)NC1c1ccccc1 (centres undefined)	?	-23.9%	8.0%	4.2%	0.0%	1.5%	11.3%	6.2%
Cc1cccc(N2CCN(C(=O)C(C)C)CC2)c1C	-16.3%	-11.9%	-36.3%	-2.1%	1.8%	-103.0%	?	0.1%
COc1nc(N)c(S(=O)(=O)c2ccccc2)cc1C#N	?	14.2%	-1.1%	-3.4%	1.2%	4.6%	-12.0%	-0.3%
CC(C)CSc1ccccc1NC(=O)c1sc2nc(-c3ccncc3)ccc2c1N	0.0%[46.1 µM]	-6.7%	·	0.5%	-3.5%	·	-5.6%[46.1 µM]	·
O=C(COC(=O)[C@H](Cc1ccccc1)NC(=O)c1cccs1)Nc1c(Cl)cccc1Cl	?	-5.9%	-12.0%	25.1µM*	15.8µM*	-22.8%	18.8%	-12.5%
Cc1ccc(CNC(=O)c2cc(S(=O)(=O)N3CCCCC3)ccc2N2CCOCC2)cc1	-22.0%	-6.5%	1.9%	·	·	·	?	19.0%
CNC(=O)C1CCN(S(=O)(=O)c2c(C)noc2/C=C/c2ccc(C)cc2)CC1	·	-24.8%	-2.2%	·	·	7.0%	·	5.1%
COc1ccc(Cl)c(Cn2c(NCC(C)O)nc3c2c(=O)n(C)c(=O)n3C)c1 (centres undefined)	7.2%	-23.7%	-3.3%	2.2%	-0.1%	4.6%	5.3%	18.3%
(list continues)
SMILES	MARV entry inh	StopGo reporter	SARS PLP yeast	Cruzain noTriton	Cruzain inh Det	NS1 function inh	Lassa entry inh	RE007 growth inh
Cc1ccc(Oc2nc3ccccc3n3cccc23)cc1	-25.8%[46.1 µM]	-25.7%	0.2%	-7.1%	-4.6%	-1.9%	3.0%	-3.8%
COCCNC(=O)c1ccccc1NC(=O)c1ccccc1SC	10.3%[46.1 µM]	-6.0%	-0.6%	·	·	1.8%	-3.5%	3.3%
Cc1cccc(C(=O)NCC(=O)OCC(=O)N(C)CC(=O)Nc2ccccc2Cl)c1	1.2%	0.0%	4.8%	·	·	·	-4.0%	-23.7%
Cc1[nH]c(=O)c(C#N)c2c1CSC(C)(C)C2	3.9%	14.9%	?	-8.5%	-2.0%	-0.1%	-8.1%	3.2%
CCCS(=O)(=O)N1CCN(c2ccccc2F)CC1	13.9%	-13.6%	-1.1%	-7.3%	-1.5%	3.0%	-15.0%	-24.0%
O=c1c2cccnc2n(Cc2cccc(F)c2)c(=O)n1Cc1ccccc1Cl	-1.1%[46.1 µM]	-16.5%	·	0.9%	0.1%	·	·	·

Compound activity as filed in PubChem.
